TRPML1 ag: qHTS for Agonists of the Human Mucolipin Transient Receptor Potential 1 (TRPML1); Mucolipin-1 (Homo sapiens), Q9GZU1; TRPML1-expressing cells, Ca2+ dye fluorescence, FDSS; host cell line not named in the record; reference of the full effect not given here; activation, % (test concentration not listed); 410,000 compounds, 0.12% hits; in the data active = activation above about 50%; inconclusive = about 30% to 50%; inactive = below about 30%; further: 0% is about no effect; the text of the record puts the active cut at 80%
Target sequence (Q9GZU1 whole entry, looked up): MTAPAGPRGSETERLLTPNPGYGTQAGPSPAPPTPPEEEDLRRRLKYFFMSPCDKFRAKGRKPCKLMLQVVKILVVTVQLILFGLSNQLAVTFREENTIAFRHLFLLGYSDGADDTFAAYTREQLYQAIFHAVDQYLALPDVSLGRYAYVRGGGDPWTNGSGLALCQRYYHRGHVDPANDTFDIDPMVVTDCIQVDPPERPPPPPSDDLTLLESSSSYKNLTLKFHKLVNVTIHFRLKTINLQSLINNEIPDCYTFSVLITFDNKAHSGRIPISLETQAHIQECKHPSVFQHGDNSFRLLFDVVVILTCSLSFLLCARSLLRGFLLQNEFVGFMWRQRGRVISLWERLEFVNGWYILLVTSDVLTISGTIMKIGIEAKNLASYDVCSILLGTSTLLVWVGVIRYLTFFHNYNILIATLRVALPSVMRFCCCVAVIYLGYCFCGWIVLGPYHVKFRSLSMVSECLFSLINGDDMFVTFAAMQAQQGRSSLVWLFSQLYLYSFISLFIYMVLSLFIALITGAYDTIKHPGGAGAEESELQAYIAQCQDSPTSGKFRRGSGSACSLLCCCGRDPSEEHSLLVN
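In this qHTS format, compounds were pin-transferred onto Ca8-dye-loaded TRPML1-DL cells induced with Tet overnight, and intracellular Ca2+ fluorescence was recorded kinetically for 110 s after a 10 s baseline. A subsequent 4uM final 54-4 (EC80) addition followed by a second 110 s read served as the antagonist phase.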
TRPML1 blocker: qHTS for Inhibitors of the Human Mucolipin Transient Receptor Potential 1 (TRPML1); Mucolipin-1 (Homo sapiens), Q9GZU1; TRPML1-inducible cells, Ca2+ dye fluorescence, FDSS; active compounds read low; inhibition of EC80 agonist-evoked calcium signal; AID 624415, 2012; activity change, negative = inhibition, % (test concentration not listed); 390,000 compounds, 0.02% hits; in the data active means activity change below about -50%; inconclusive means about -30% to -50%; inactive means above about -30%;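 further: stimulus is agonist 54-4 at its EC80 concentration; on the % scale 0 is the no-effect control and ±100 the full control effect; compound concentration not given in the record; the text of the record puts the active cut at -80%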
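TRPML1-DL cells, Tet-induced overnight (~16 h, 37 °C) at 1,500 cells/well, were loaded with Ca8 no-wash dye plus quencher for 45-90 min at room temperature. Compounds were pinned during FDSS kinetic reading; agonist 54-4 at EC80 (4 uM final) then added.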
Six1-Eya2 inh: qHTS Assay for Inhibitors of the Six1/Eya2 Interaction; Homeobox protein SIX1 (Homo sapiens) + Protein phosphatase EYA2 (Homo sapiens), …; AlphaScreen GST-Six1/His-Eya2 binding, biochemical; active compounds read low; control for the full effect not named in the record; activity change, % (test concentration not listed); 360,000 compounds, 0.56% hits; AID 651725, 2012; in the data active = activity change below about -65%; inconclusive = about -30% to -65%; inactive = above about -30%; further: on the % scale 0 is the no-effect control and ±100 the full control effect
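GST-Six1 + His-Eya2 (5X stock: 250/500 nM); Tris pH 8.0, 300 mM NaCl, 0.05% BSA, 0.02% Tween 20; GSH donor/Ni acceptor beads; 1 h 37 °C dark; AlphaScreen readout.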
D2 agonist: Beta-Arrestin HTS for Positive Allosteric Modulators of the Human D2 Dopamine Receptor: Agonists. DiscoveRx PathHunter D2 beta-arrestin, luminescence, 90 min; 100% = 57 uM dopamine signal. activation, % (no concentration beside the values). 360,000 compounds, 0.084% hits. AID 624465, 2012; in the data active = activation above about 40%; inconclusive = about 15% to 40%; inactive = below about 15%; further: compound concentration not given in the record; the text of the record calls up to 30% inactive
Target sequence (P14416 whole entry, looked up): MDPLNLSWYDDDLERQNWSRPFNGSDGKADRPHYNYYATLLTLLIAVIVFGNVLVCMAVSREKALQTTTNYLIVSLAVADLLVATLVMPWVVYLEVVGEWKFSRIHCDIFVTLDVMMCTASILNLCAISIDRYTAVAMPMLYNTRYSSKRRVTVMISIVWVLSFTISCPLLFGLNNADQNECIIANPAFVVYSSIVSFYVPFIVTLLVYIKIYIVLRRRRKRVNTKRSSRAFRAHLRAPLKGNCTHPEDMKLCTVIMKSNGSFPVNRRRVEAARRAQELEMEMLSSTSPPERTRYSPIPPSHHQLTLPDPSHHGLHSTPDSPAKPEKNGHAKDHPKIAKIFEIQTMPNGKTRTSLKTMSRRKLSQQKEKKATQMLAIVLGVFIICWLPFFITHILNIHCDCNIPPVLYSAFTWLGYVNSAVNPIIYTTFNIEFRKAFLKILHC
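Agonist mode: compounds alone added to overnight-plated D2 PathHunter cells for 90 min at 37 C, with 57 uM final dopamine (EC100) defining full response. Beta-arrestin recruitment detected by chemiluminescent reagent, read after 1 h at ambient temperature.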
PINK1 modulator: A Quantitative High throughput Screen to Identify Chemical Modulators of PINK1 Expression | PINK1 immunofluorescence, high-content cytometry, 24 h | AID 624263, 2012 | 410,000 compounds, 0.2% hits | Potency, µM (titrated, usually from 76.6 µM), for inactives: at the top dose activation (PINK1 increase), hits mostly activators; active = well fitted activation curve with a large enough effect; inconclusive = small, poorly fitted or top-dose-only effect; inactive = flat fitted curve, though single readings scatter; cell line not stated here;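 further: potency means the concentration at half of the fitted maximal effect; % of control where 0% means no effect; nearly all actives have a fitted effect of over 65% in size; a mitochondrial uncoupler was the plate control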
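Compound titrations (5 concentrations, 24 h) on a stable cell line; DMSO and CCCP controls. Endpoint: fixed-cell PINK1 immunofluorescence with mitochondrial, cell and nuclear markers, scanned by microplate cytometer.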
D2 potentiator: Beta-Arrestin HTS for Positive Allosteric Modulators of the Human D2 Dopamine Receptor: Potentiators; 360,000 compounds, 0.23% hits; D(2) dopamine receptor (Homo sapiens), P14416; DiscoveRx D2 beta-arrestin cells, luminescence, 90 min; 100% = 57 uM dopamine signal; potentiation, % (no concentration beside the values); active = potentiation of 50% or more; inconclusive = 30% to 50%; inactive = 30% or less;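 further: compound concentration not given in the record; tested on top of an EC20 dose of dopamine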
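PathHunter beta-arrestin assay in DiscoveRx D2 cells. Compounds were added with an EC20 of dopamine (50 nM final) for 90 min at 37 deg C. Luminescence was read 1 h after detection reagent, with 57 uM dopamine as the EC100 control.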
Starred values were filed as active, the others as inactive; ? = inconclusive; nt = not tested or not shown; & = joins results of further samples; [ ] = another dose, or the depositor's remark.

Order of results – D2 agonist	TRPML1 ag	Six1-Eya2 inh	TRPML1 blocker	PINK1 modulator	D2 potentiator
COc1cc(C(=O)Nc2nnc(C)s2)c([N+](=O)[O-])cc1OC
 : -5.0	-0.4	11	1	-2.0%	-18
NC(=O)c1cc(C(N)=O)nc(Cl)n1
 : -9.5	0.5	-1	2	1.5%	3
COc1ccc(-n2c(SCC(N)=O)nnc2-c2ccc(NS(=O)(=O)c3ccc(C)cc3)cc2)cc1
 : -2.5	0.9	15	-23	?	-6
O=P(O)(c1ccc(Cl)cc1)c1ccc(Cl)cc1
 : 1.7	-0.5	10	-24	1.5%	-6
Cn1c(-n2cccc2)c(-c2c(-c3ccc(F)cc3)[nH]c3c2c(=O)[nH]c(=O)n3C)c(=O)[nH]c1=O
 : nt	0.3	nt	4	2.2%	nt
CCOC(=O)Nc1ccc2c(COC(=O)CNS(=O)(=O)c3ccc(NC(C)=O)cc3)cc(=O)oc2c1
 : -2.7	-0.3	-9	1	12%	-7
COC(=O)[C@H]1[C@H](CCc2ccccc2)NC(=O)N(Cc2ccccc2)[C@@H]1C
 : -2.2	-0.7	-2	-18	2.1%	-6
COc1ccc(CNc2ncnc3onc(-c4ccc(F)cc4)c23)cc1
 : nt	4.4	nt	33	1.9%	nt
N/C(=N\OC(=O)CN1C(=O)c2ccccc2C1=O)c1ccc(Cl)cc1
 : -2.5	1.9	6	15	2.6%	-3
CCn1c(=O)n(CC)c2cc(S(=O)(=O)Nc3cc(C)cc(C)c3C#N)ccc21
 : 13	0.0	7	-7	-2.6%[38.3 µM]	12
O=C(N/N=C/c1ccc(O)cc1)c1cccc(N/N=C/c2ccc(O)cc2)c1
 : 2.5	nt	-19	nt	4.1%	-5
COc1ccc(S(=O)(=O)N(C(=O)c2ccco2)c2cc3sc(=O)oc3c3ccccc23)cc1
 : ?	1.4	-27	20	-0.5%	97*
CC1Cc2ccccc2N1C(=O)CN1C(=O)NC(C)(CCc2ccccc2)C1=O (stereo not given)
 : -0.9	-0.2	-3	-1	3.4%	15
CC1CCC2C(C1)c1sc(=O)[nH]c1SC2(C)C (stereo not given)
 : -2.0	2.1	-5	12	8.7%[38.3 µM]	5
O=C(NC[C@@H]1CCCO1)c1cccc2c1C(=O)c1ccc(Cl)cc1S2(=O)=O
 : 1.7	-0.6	-1	18	3.0%	7
O=C(CSc1nnc(-c2ccco2)n1CC1CCCO1)c1ccc(F)cc1 (stereo not given)
 : -1.2	-0.6	5	7	-1.3%	-5
OC(c1ccccc1)c1ncc(-c2cccc(C(F)(F)F)c2)[nH]1 (stereo not given)
 : 6.0	-0.7	-3	nt	2.4%	-4
CC(=O)NCc1ccc(S(=O)(=O)NC(C(=O)O)C(C)C)cc1 (stereo not given)
 : -0.9	-0.5	0	4	0.6%	-4
O=C(O)/C=C/C(=O)NC1CCCCCCCCCCC1
 : -3.5	0.4	9	23	-2.6%	-16
Cc1ccc(C(=O)C(OC(=O)COc2ccccc2C)c2ccccc2)cc1 (stereo not given)
 : -1.6	1.5	22	1	-0.5%	-11
O=C(C[C@H]1C(=O)N(c2ccccc2)C[C@@H]1Cc1ccccc1)Nc1ccc(Br)cc1
 : -1.8	nt	-5	nt	6.3%	nt
Nc1cc(Cl)ccc1N1CCCC1
 : -5.5	-1.6	-1	3	-1.4%	-4
Cc1ccc(C(C(=O)NC2CCCC2)N(Cc2cccs2)C(=O)c2csnn2)o1 (stereo not given)
 : -0.6	3.7	-3	-1	-4.3%	16
CC1CCCC(NC(=S)Nc2ccc(SC(F)F)cc2)C1C (stereo not given)
 : 3.0	2.6	12	0	?	-3
O=C(Nc1cccc(Cl)c1)c1c(NC(=O)C(F)(F)F)sc2c1CCCC2
 : nt	1.9	nt	34	40µM*	nt
COC(=O)c1sc(N)c(C(=O)OC)c1COC(=O)CCNS(=O)(=O)c1ccc(C)cc1
 : -3.0	0.2	-3	11	-1.0%	1
CCOC(=O)[C@@H](C)N(Cc1ccc(OC)cc1)S(=O)(=O)N(Cc1ccccc1)[C@H](C(=O)OC)C(C)C
 : -3.2	2.3&2.6	9	18	-0.1%	-3
COc1ccccc1NC(=O)c1ccc(NC(=O)Cc2n[nH]c(=O)c3ccccc23)cc1
 : -1.7	0.3	5	5	?	-7
CCCn1c(SCC(=O)c2cc(C)c(C)cc2C)n[nH]c1=O
 : -5.4	1.2	-2	12	-0.1%	9
COc1ccc(C(=O)Nc2ccc3c(c2)OCCO3)c(OC)c1
 : -1.3	-0.8	-2	1	-0.7%	-1
CN(C)c1ccc(NC(=S)c2ccc3ccccc3n2)cc1
 : -0.1	-0.1	-3	14	1.7%	-4
Fc1ccccc1-c1nnc2ccc3ccccc3n12
 : 3.7	-0.6	-5	-5	1.0%	-6
Cc1ccc(C(=O)NCCc2nnc3ccc(N4CCCC4)nn23)cc1
 : -7.3	0.3	2	0	2.4%	-17
CCOC(=O)C1=C(O)C(=O)N(CCCn2ccnc2)C1c1ccc(C)cc1 (stereo not given)
 : -5.3	1.7	5	20	1.8%	-3
COc1ccc(-c2c[n+]3c(n2-c2ccccc2)SCC3)cc1
 : 0.5	-0.5	3	-7	2.5%	-9
COc1cccc(NC(=O)COC(=O)c2ccccc2C(=O)N2CCN(c3ccccc3)CC2)c1
 : -4.4	1.2	-9	19	1.9%	-2
O=C1CN(C(=O)CN2CCN(S(=O)(=O)c3ccccc3F)CC2)c2ccccc2N1
 : -2.5	-0.8	-6	-23	1.1%	-10
CC1c2[nH]c3ccccc3c2C[C@H]2C(=O)N(CCCO)CC(=O)N12 (stereo not given in full)
 : 2.3	0.8	-2	-9	1.5%	-5
O=C(COc1ccc(C(=O)NCCc2ccccc2)cc1)Nc1ccccc1
 : 1.2	-0.5	20	1	5.2%	-5
COc1ccc(-c2noc(-c3ccc(N4CCOCC4)c([N+](=O)[O-])c3)n2)cc1
 : nt	0.3	nt	1	-0.3%	nt
C#CCN(CC=C)C(=O)c1cccc(OC2CCN(S(C)(=O)=O)CC2)c1
 : 5.9	-0.1	6	34	1.4%	-1
CC(=O)NC(C)C(=O)OCC(=O)c1ccc(-c2ccccc2)cc1 (stereo not given)
 : -4.8	0.3	-3	-4	2.4%	-11
CCN(CC)CCn1c2c(c(SCC(=O)Nc3ccc4c(c3)OCCO4)nc1=O)CCC2
 : -5.1	-0.3	0	6	-0.4%	-22
COCCN(C(=O)C1CC(=O)N(Cc2ccc(C)cc2)C1)c1c(N)n(CC(C)C)c(=O)[nH]c1=O (stereo not given)
 : 1.2	1.0	-15	5	2.4%	-1
CCOC(=O)c1[nH]c(C)c(C(=O)OCc2ccccc2F)c1C
 : 7.0	2.6	-2	13	7.8%	-3
C=CCC[C@@H](Cc1ccc(F)cc1)C(=O)OC[C@@H](NC(=O)[C@H](CC=C)CC(=O)N(CCO)Cc1ccccc1)c1ccccc1
 : 1.9	3.4	0	23	6.2%	-4
Cc1ccc(-c2onc(C)c2C)cc1S(=O)(=O)Nc1ccc(Cl)cn1
 : nt	1.1	nt	-8	1.1%	nt
COc1cccc(NC(=O)CCCN2C(=O)C3CC=CCC3C2=O)c1 (stereo not given)
 : -3.5	0.7	1	2	-0.4%	-10
Cc1ccc(C)c(OCCCNCc2ccccc2)c1
 : -3.3	-0.9	2	26	19%	-64
Cc1ccc(C(=O)Nc2cccc(S(=O)(=O)N3CCCCC3)c2)cc1S(=O)(=O)N1CCOCC1
 : 11	1.7	-11	-4	0.8%	1
Cc1cc(C(F)(F)F)nc(SCC(=O)c2cccc([N+](=O)[O-])c2)n1
 : -2.6	0.7	-10	-14	5.5%[38.3 µM]	-12
O=C(COc1ccc([N+](=O)[O-])cc1)Nc1ccccc1N1CCCC1
 : -27	0.0	-16	41	-0.4%	1
O=S(=O)(Nc1ncnc2sc3c(c12)CCC3)c1cc(F)ccc1F
 : -5.8	-0.8	11	-14	0.9%	-13
COc1cc2nc(SCc3c(C)noc3C)n(CCC3=CCCCC3)c(=O)c2cc1OC
 : -0.2	0.5	-1	-4	14%	2
O=C(/C(=C/c1ccncc1)n1ccnc1)c1ccc(Cl)cc1Cl
 : -0.2	-0.2	-17	-6	8.4%	-12
COc1ccc(OC)c(S(=O)(=O)NCc2cc(-c3ccccc3)no2)c1
 : -3.8	-0.3	-1	-8	2.6%	-10
CCOCCCNC(=O)C1CCN(C(=O)c2cc3sccc3n2C)CC1
 : nt	0.5	nt	-15	-0.2%	nt
COc1ccc(C(=O)OCc2cc(=O)n3nc(-c4cccs4)sc3n2)cc1
 : nt	-0.5	nt	-11	17%	nt
CN1C(=O)/C(=C/c2cc3c(cc2Br)OCO3)NC1=S
 : 1.2	3.6	0	-12	-2.4%	-7
CCOC(=O)/C=C1\SCC(=O)N1Cc1nnc(-c2ccccc2Br)o1
 : 0.2	-0.1	-7	8	-1.1%	-13

Reformatted: results already given
SMILES: Cc1ccc(C(=O)Nc2cccc(S(=O)(=O)N3CCCCC3)c2)cc1S(=O)(=O)N1CCOCC1
  D2 agonist = 11
  TRPML1 ag = 1.7
  Six1-Eya2 inh = -11
  TRPML1 blocker = -4
  PINK1 modulator = 0.8%
  D2 potentiator = 1
SMILES: Cc1cc(C(F)(F)F)nc(SCC(=O)c2cccc([N+](=O)[O-])c2)n1
  D2 agonist = -2.6
  TRPML1 ag = 0.7
  Six1-Eya2 inh = -10
  TRPML1 blocker = -14
  PINK1 modulator = 5.5%[38.3 µM]
  D2 potentiator = -12

(cont.)
Order of results – D2 agonist	TRPML1 ag	Six1-Eya2 inh	TRPML1 blocker	PINK1 modulator	D2 potentiator
O=C(Oc1oc(-c2ccco2)nc1C=Nc1ccccc1)c1ccoc1
 : -1.5	0.8	0	-4	3.5%[38.3 µM]	-4
NC(=O)NC(Cc1ccccc1)C(=O)O (stereo not given)
 : 0.9	0.0	1	11	6.5%[38.3 µM]	-1
CCC(=O)Nc1ccc(S(=O)(=O)Nc2cccc(C)c2)cc1OC
 : -3.4	-0.5	9	28	35%[38.3 µM]	-12
O=C(Nc1ccc(NC(=O)c2ccc(Cl)c(S(=O)(=O)N3CCOCC3)c2)cc1)c1ccccc1
 : 2.0	0.7	2	7	9.6%	-29
CN1CCN(NC(=S)Nc2ccc(OC(F)F)cc2)CC1
 : -1.3	-0.6	0	1	1.2%	-13
Cn1nnc2cc(NC(=O)Nc3cccc(Cl)c3)ccc21
 : -0.8	0.8	7	-25	6.5%	-10
Cc1ccc(C(=O)Nc2ccn(Cc3ccc(F)cc3)n2)o1
 : -2.0	-0.1	7	24	6.1%	0
COc1cccc(/C=N/NC(=O)c2ccccc2)c1OS(=O)(=O)c1ccccc1
 : -4.0	-0.1	-1	11	1.3%	-4
